Screening data: PubChem BioAssay, Fisher Drug Discovery Resource Center
NPYLR7 ag: agonists of mosquito NPYLR7 receptor, primary screen, cell-based, Aedes aegypti, calcium fluorescence, mosquito biting behavior; Aedes aegypti neuropeptide Y-like receptor 7 (NPYLR7); HEK293T NPYLR7/Galpha15, GCaMP6s calcium fluorescence; activation, % at 10 µM; 0.15% of 270,000 active; AID 1259423, 2018; in the data active = activation above about 40%;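 note: 0% = vehicle and 100% = reference agonist at the receptor; some compounds past the cut are filed as inactive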
NPYLR7 ag max-min: also measured in NPYLR7 ag; calls as there; activation, %; measured here: Max-Min RFU normalised activation; some inactives read as strong as hits;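 span of the calcium signal over five minutes; 0% = vehicle and 100% = native peptide agonist; compound fluorescence can raise it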
The depositor's hits bear a star; & = joins results of further samples.

mol | NPYLR7 ag max-min | NPYLR7 ag
Cc1ccc2c(c1)C1CN(C)CCC1N2C(=O)COc1ccccc1F (configuration not stated) | -2 | -1
COc1cn(CC(=O)Nc2cc(C)on2)c(CSc2nccn2C)cc1=O | -7 | -1
COc1cccc(C(=O)N2CCSC2c2cccnc2)c1 (configuration not stated) | -3 | 8
COc1ccc(N(C)S(=O)(=O)c2ccc(OC)c(N3CCN(S(=O)(=O)c4c(C)c(C)c(C)c(C)c4C)CC3)c2)cc1 | 4 | 9
CCCCn1ccc2nc3ccn(-c4ccn[nH]4)c(=O)c3cc2c1=O | 9 | 2
O=C(NCCCn1nc(-c2ccccc2)ccc1=O)Nc1ccc2c(c1)OCO2 | -4 | -2
CSc1ccc(C(=O)NCCc2c[nH]c3ccccc23)c(-c2cccc(F)c2)c1 | -15 | -9
COc1ccc(C)c2sc(N(CCCN(C)C)C(=O)CS(=O)(=O)c3ccc(F)cc3)nc12 | -4 | 0
Cc1ccc(S(=O)(=O)N(CC(=O)N(Cc2ccc(F)cc2)Cc2ccc(C)s2)C(C)C)cc1 | 9 | 7
CCc1ccc(-n2cc(C(=O)OCC(=O)OC)c3ccccc3c2=O)cc1 | -3 | 1
COc1ccc(-c2nc3scc(CCNS(=O)(=O)c4cccc(C(C)=O)c4)n3n2)cc1 | 2 | 4
COc1ccc(NC(=O)c2cnn3c2NC(c2ccccc2)CC3C(F)(F)F)cc1OC (configuration not stated) | -9 | -4
COc1ccc(CN(Cc2ccco2)CC(O)COCc2ccco2)cc1OC (configuration not stated) | 5 | -2
COCC1(C(=O)NCc2cc3c(cc2OC)OCCO3)CCC1 | -4 | 0
Cc1cn2c3c(=O)n(Cc4ccccc4)c(=O)n(C)c3nc2n1C1CCCCC1 | 4 | 5
O=S(=O)(c1ccc(-c2ccno2)s1)N1C[C@H]2CC=CC[C@H]2C1 | -2 | -2
Cc1cccc2sc(N(CCN(C)C)C(=O)c3ccc(Cl)s3)nc12 | -8 | -4
Cc1ccc(C(=O)N2CCN(C(C#N)c3ccccc3)CC2)cc1C (configuration not stated) | 4 | 5
Nc1cncc(-n2ccc(-c3cc(Cl)ccc3O)n2)c1 | -13 | -4
CCOc1ccc(/C=C2\N=C(c3cccc(Br)c3)OC2=O)cc1 | -3 | 0
CCn1ccc2ccc(NC(=O)C3CCCC(C(F)(F)F)C3)cc21 (configuration not stated) | -4 | -1
COc1ccccc1C(CO)Nc1nc2ccccc2c2nc(C)nn12 (configuration not stated) | 5 | 6
Cc1n[nH]c(C)c1CC(=O)N1CCC2(CC1)CN(C)CCN2C | 11 | 14
CN(C)N=Cc1ccc(Cl)c([N+](=O)[O-])c1 | 0 | 2
N#Cc1ccccc1COC(=O)C1(c2ccccc2)CC1 | 0 | 0
Cc1ccc(C(=O)N2CCC(c3[nH]ncc3Cc3ccccc3)CC2)c(=O)n1C | -4 | -2
O=C(c1cc2ccccc2c(=O)[nH]1)N1CCN(S(=O)(=O)c2ccc(F)c(F)c2)CC1 | -7 | -6
CC(C)CCN(Cc1cccs1)CC(O)COCc1ccco1 (configuration not stated) | 25 | -3
COc1ccc(C=O)cc1OCc1nc(CCC(C)C)no1 | -2 | 0
CCCCOc1ccc(S(=O)(=O)NCc2ccco2)cc1 | 2 | 6
CCOC(=O)C1CCCN(C(=O)c2ccc(CSc3nc(C)c(C)c(N4CCN(c5ccc(OC)cc5)CC4)n3)cc2)C1 (configuration not stated) | 19 | 10
CCC(C)N(Cc1ccc(OC)c(OS(=O)(=O)c2cccc(C(F)(F)F)c2)c1)C(=O)c1ccc(OC)cc1OC (configuration not stated) | 4 | -3
CN(CCO)S(=O)(=O)c1ccc2c(c1)Cc1cc(S(=O)(=O)N(C)CCO)ccc1-2 | 7 | 18
Cc1nn2c(=O)[nH]c(SCC(=O)Nc3cccc(F)c3)nc2c1-c1ccccc1 | 1 | 12
C=CCN(CC(=O)N(Cc1ccccc1)Cc1cccn1C)C(=O)Nc1ccc(C)cc1 | 1 | -6
COc1ccc(N2C(=O)CSC2c2ccc(NC(=O)Cc3cccs3)cc2)cc1 (configuration not stated) | 12 | -1
O=C(C1CCCN1S(=O)(=O)c1cccs1)N1CCN(c2nc3ccccc3s2)CC1 (configuration not stated) | 2 | 3
CCCN(Cc1nc2sc3c(c2c(=O)[nH]1)CCN(Cc1ccccc1)C3)CC(O)Cc1ccccc1 (configuration not stated) | 4 | -1
Cc1cnn(Cc2ccc(Cl)cc2)c1NC(=O)c1c(C)oc2c1C(=O)CCC2 | -3 | -3
O=C(CSc1nc(=O)n2cc(Cl)ccc2n1)Nc1ccc2c(c1)OCCO2 | 3 | 6
CCOc1ncccc1-c1nc(C)cc(NC)n1 | 5 | 14
CC(C)Cc1nc(CN(C)c2nc(-c3cccnc3)nc3c2cnn3C)no1 | -3 | -3
CCc1n[nH]c(=O)c2cc3sc(Cl)cc3n12 | 0 | -2
Cc1nccn1CCn1ccnc1-c1ccccn1 | -4 | -1
CC(C)Cn1c(N)c(-c2csc(NC(C)c3ccccc3)n2)c(=O)n(C)c1=O (configuration not stated) | 10 | -1
O=C(CN1CCCOC1=O)Nc1ccc(Cl)c(Cl)c1 | 14&4 | -1&6
CN1CC2(CCN(CC(=O)N3CCc4ccccc43)C2)OC1=O (configuration not stated) | -5 | 0
NCCCOC1CCN(Cc2ccccc2)CC1 | 1 | 4
NC1=NC(=O)/C(=C\c2csc(-c3ccc(F)cc3)n2)S1 | -1 | 3
O=C(NCc1ccc2c(c1)OCO2)c1csc(CSc2nnc(Cc3ccccc3)n2-c2ccc(Cl)c(Cl)c2)n1 | 25 | 6

(more compounds)
mol | NPYLR7 ag max-min | NPYLR7 ag
Cc1ccc(C)c(N2C(=O)C3C4C=CC(C5CC45)C3C2=O)c1 (configuration not stated) | 1 | 5
Cn1cc(CCC(=O)N2CCCC(C(=O)c3ccc(C(F)(F)F)cc3)C2)cn1 (configuration not stated) | -1 | 2
O=S(=O)(c1ccc(Cl)s1)N1CCCSc2ccccc21 | 18 | 20
CSCC(=O)N1C[C@@H](NC(=O)NC2CCCCC2)C[C@H]1C(=O)N(C)CC(N)=O | -8 | -7
CN(C(=O)Cc1ccc(Cl)cc1Cl)C(CCO)c1ccccc1 (configuration not stated) | -1 | 1
Cc1ccc2sc(N(CCCN(C)C)C(=O)c3cccs3)nc2c1C | 0 | 1
Cc1ccc2c(=O)[nH]c(Nc3nc(C)cc(-c4ccccc4)n3)nc2c1 | -5 | 0
CC(=O)OC(CCl)c1cccc([N+](=O)[O-])c1 (configuration not stated) | -11 | -6
C=C(C)Cn1c(SCC(=O)N/N=C(/C)c2ccco2)nnc1-c1ccc(Br)cc1 | 9 | -2
N#Cc1cccc(OCCN2CCCc3cc(F)ccc32)c1 | 815 | -9
CCN(C(=O)CN1CCCC(C(=O)NC2CCCCC2)C1)c1nc2ccccc2s1 (configuration not stated) | 2 | 2
O=C(Cc1cccs1)NN=Cc1ccccc1C(F)(F)F | -2 | 0
CN(C)C(=O)C(c1ccccc1)N1CCN(c2ccccc2O)CC1 (configuration not stated) | 1 | 2
CC1CN(c2cc(Cl)nc(SCC(=O)NCc3cccnc3)n2)CCN1C(=O)c1ccccc1 (configuration not stated) | 12 | 3
Cc1[nH]c2ccccc2c1CCNC(=O)c1cnn(-c2cccc(Cl)c2Cl)c1N | 17 | 0
CC(C)CCn1c(CN2CCN(C)CC2)nc2c1c(=O)n(C)c(=O)n2C | 14 | 0
Cc1ccc2sc(N(Cc3ccccn3)C(=O)c3ccc(C#N)cc3)nc2c1C | -6 | 3
Cc1noc(C)c1CC(=O)NCc1cccnc1N1CCc2ccccc2C1 | 1 | 4
COc1c(NC(=O)Nc2ccc(F)cc2C#N)c(C)nn1C | -26 | -24
CCc1nc2ccccc2n1CC(=O)NNC(=O)c1ccc(Cn2cncn2)cc1 | 10 | 9

Next section; the last 6 above are carried over.
mol | NPYLR7 ag max-min | NPYLR7 ag
Cc1[nH]c2ccccc2c1CCNC(=O)c1cnn(-c2cccc(Cl)c2Cl)c1N | 17 | 0
CC(C)CCn1c(CN2CCN(C)CC2)nc2c1c(=O)n(C)c(=O)n2C | 14 | 0
Cc1ccc2sc(N(Cc3ccccn3)C(=O)c3ccc(C#N)cc3)nc2c1C | -6 | 3
Cc1noc(C)c1CC(=O)NCc1cccnc1N1CCc2ccccc2C1 | 1 | 4
COc1c(NC(=O)Nc2ccc(F)cc2C#N)c(C)nn1C | -26 | -24
CCc1nc2ccccc2n1CC(=O)NNC(=O)c1ccc(Cn2cncn2)cc1 | 10 | 9
CC(C)Oc1ccc(-n2ncc3c2C(Cc2cscn2)NC3=O)cc1 (configuration not stated) | 9 | 19
Cc1noc(-c2ccccc2)c1NC(=O)Nc1ccc2nc([C@H]3C[C@H](O)[C@@H](CO)O3)[nH]c2c1 | -7 | -3
Cc1cc(C)n(CC(C)NCc2c(C(=O)N3CCCCC3)nc3c(C)cccn23)n1 (configuration not stated) | -1 | 3
CC(=O)c1ccccc1C(=O)N1CCC(CCC(=O)Nc2ccc3c(c2)OCCO3)CC1 | 7 | 7
CC1CCN(Cc2nnnn2CC(=O)NC2CCCN(Cc3ccccc3)C2)CC1 (configuration not stated) | 6 | 16
CCN(Cc1noc(C)n1)C(=O)c1cc2n(n1)CCN(C(C)=O)C2 | 18 | 28
CC1=NN(Cc2ccccc2)c2nc3c(c(=O)n(Cc4ccccc4F)c(=O)n3C)n2C1 | 2 | 1
C=CCN(CC=C)c1cc(Cl)nc(SCc2cccc(C(=O)NCc3ccc4c(c3)OCO4)c2)n1 | -1 | -7
Cc1oc(-c2cc(F)ccc2F)nc1CN(C)C1CCOC1 (configuration not stated) | 12 | 7
CCn1c(=O)n(CCS(=O)(=O)Oc2ccccc2)c2ccccc21 | 1 | 1
Cc1nnsc1C(=O)N1CCCC(N(C)Cc2ccccc2)C1 (configuration not stated) | 11 | 16
CCC(NC(=O)COC)C1c2cc(OC)c(OC)cc2CCN1Cc1cccc(OC)c1 (configuration not stated) | -1 | 11
CC1(C(=O)NS(=O)(=O)c2ccc(C#N)cc2)CCN1C(=O)C1(c2ccc(Cl)cc2)CC1 (configuration not stated) | 5 | 6
Cc1ccc(/C=C2/N=C(c3ccc(C)c(C)c3)OC2=O)o1 | -8 | -3
Cc1nn(C(C)C)c(C)c1NC(=O)NC1(CCO)CCCCC1 | 4 | 1
COCCn1cncc1CN1CCCC1c1nc2ccc(F)cc2[nH]1 (configuration not stated) | 1 | 0
O=C(NCCN1CCOCC1)c1csc(CSc2nnc(-c3ccncc3)n2-c2cccc(C(F)(F)F)c2)n1 | 8 | -2
CCNC(=O)Nc1ccc(N(C)C)c(CN(Cc2cccc(F)c2)C(=O)C(CC)CC)c1 | 9 | 5
CCCc1nc(N2CCCN(C(=O)Nc3cccc(Br)c3)CC2)c2c(-c3ccccc3)noc2n1 | 7 | 16
CC1(C(=O)NCc2ccccc2)Cc2c(-c3ccc(C(N)=O)cc3)ccnc2O1 (configuration not stated) | -10 | -6
CCc1ccc(Nc2nc(-c3cnc(N4CCCC4)nc3C)cc(=O)[nH]2)cc1 | -7 | -5
CC(C)c1ccc(C2SCCN2C(=O)C(c2ccccc2)c2ccccc2)cc1 (configuration not stated) | -4 | -2
Cc1sc(NS(=O)(=O)c2ccc(F)c(F)c2)c(C(N)=O)c1C | 29 | 34
COc1ccccc1-n1cc(-c2nc(CC3CCN(C)CC3)no2)cn1 | -1 | 1
Cc1ccc(NCCNC(=O)C2CCCC2)nn1 | -23 | -13
CCCC(=O)N1CCCC1C(=O)NCCCOc1ccc(F)cc1 (configuration not stated) | 3 | 0
O=C1CCC(=O)N1Cc1ccc(C(=O)N2CCCc3cc(F)cc(F)c32)cc1 | -7 | -2
CCC(NC(=O)Cc1nc2ccc(Cl)cc2[nH]1)c1ncccc1C (configuration not stated) | -14 | -4
CC1CCCCC1NC(=O)C(C)S(=O)(=O)Cc1csc(-c2cccs2)n1 (configuration not stated) | -4 | -3
CCn1nnc2c(N3CCN(c4ccc([N+](=O)[O-])cc4)CC3)ncnc21 | 3 | 1

An excerpt of these results, with two lines to a compound.
Below each compound – NPYLR7 ag max-min | NPYLR7 ag
CCCC(=O)N1CCCC1C(=O)NCCCOc1ccc(F)cc1 (configuration not stated)
 : 3 | 0
Cc1sc(NS(=O)(=O)c2ccc(F)c(F)c2)c(C(N)=O)c1C
 : 29 | 34
COc1ccccc1-n1cc(-c2nc(CC3CCN(C)CC3)no2)cn1
 : -1 | 1

(further entries)
mol | NPYLR7 ag max-min | NPYLR7 ag
CC(C)CN(CC(=O)N(Cc1ccccc1)Cc1cccn1Cc1ccc(F)cc1)S(=O)(=O)c1cccc2cccnc12 | 0 | -9
Cc1cc(C)n(CC(=O)NN=Cc2cc(C)n(CC(C)C)c2C)n1 | 4 | 1
COc1ccc(N2C(=O)C3C4C=CC(C4=C(C)C)C3C2=O)cc1 (configuration not stated) | 2 | 2
O=C(c1ccc(CSc2nc(N3CCCC3)cc(C(F)(F)F)n2)cc1)N1CCCC1 | 3 | 10
C=CCN1C(=O)NC(c2cccc(OCc3ccccc3)c2)C2=C1CN(CCCOC)C2=O (configuration not stated) | 9 | 5
O=C(Cc1cccs1)Nc1ccc(N2CCOCC2)cc1 | 14 | 12
O=C(NCCn1cc(C2CC=CCC2)nn1)c1ccccc1Cl (configuration not stated) | 26 | 26

Some of the compounds tested; rates above refer to the full screens.
